# VACV mCherry inh – inhibitors of vaccinia virus infection (mCherry reporter signal); Vaccinia virus mCherry reporter infection, fluorescence; about a quarter of the inactives have no number; Potency, µM (top dose mostly 36.5 µM), without a hit: at the highest dose activity change, negative = inhibition, most hits filed as inhibitors; 0.63% of 310,000 active; active = well fitted inhibition curve with a large enough effect; inconclusive = small, poorly fitted or top-dose-only effect; inactive = no such curve, though single readings can be large or run the other way; tested in A549 cells; note: nearly all actives have a fitted effect of over 35% in size; inactives centre near -10
# Vaccinia Venus – vaccinia inhibition (Venus reporter) | Vaccinia virus Venus reporter expression, fluorescence | Potency, µM (doses to about 36.5 µM), inactives show at the highest dose activity change, negative = inhibition, usual class: inhibitors | 0.46% of 330,000 active | AID 720580; active means well fitted inhibition curve with a large enough effect; inconclusive means small, poorly fitted or top-dose-only effect; inactive means no such curve, though single readings can be large or run the other way; tested in A549 cells; note: nearly all actives have a fitted effect of over 30% in size; inactives centre near -10
# An asterisk follows results filed as active; i = inactive; ? = inconclusive; . = not tested or not shown; & = joins results of further samples; [ ] = another dose, or the depositor's remark. % is set by controls: 0 for no effect and ±100 for the full control effect; potency is the fitted concentration of half-maximal effect.
compound	Vaccinia Venus	VACV mCherry inh
CCOc1ccc(-n2c(C)nc3cc(C(=O)NCc4ccco4)ccc32)cc1	-19%	-26%
C=CCC(O)(CC=C)CNC(=O)C1CCC(=O)N(CCCc2ccccc2)C1 (stereo unspecified)	-7%	i
CC(=O)c1cccc(NC(=O)COC(=O)c2ccccc2C)c1	2%	0%
Cc1cc(C)c(C2=NOC(O)(C(F)(F)F)C2)c(=O)[nH]1 (stereo unspecified)	?	.
COc1ccc(C(=O)N=c2sc3cc(Cl)ccc3n2C)cc1	-23%	-23%
Cc1ccc(C2=CC(c3c(F)cccc3Cl)n3ncnc3N2)cc1C (stereo unspecified)	-3%	-11%
CC(OC(=O)c1nsc(Cl)c1Cl)C(=O)NCCc1ccccc1 (stereo unspecified)	1%	-14%
CC1=NN(c2ccccc2)C(=O)/C1=C/C=C/C=C/N(C)C	79%[activator]	4%

# Sorted by molecular weight (falling): part of the list above
compound	Vaccinia Venus	VACV mCherry inh
CC(OC(=O)c1nsc(Cl)c1Cl)C(=O)NCCc1ccccc1 (stereo unspecified)	1%	-14%
Cc1ccc(C2=CC(c3c(F)cccc3Cl)n3ncnc3N2)cc1C (stereo unspecified)	-3%	-11%
COc1ccc(C(=O)N=c2sc3cc(Cl)ccc3n2C)cc1	-23%	-23%
CC1=NN(c2ccccc2)C(=O)/C1=C/C=C/C=C/N(C)C	79%[activator]	4%

# Additional entries:
compound	Vaccinia Venus	VACV mCherry inh
COc1ccc2[nH]cc(CCNC(=O)c3ccco3)c2c1	-9%	i
CCCCn1nnnc1C1(C)CCC(=O)N1Cc1cc(OC)ccc1OC (stereo unspecified)	9%	i
COc1ccc(N(C(=O)CNC(=O)c2cccs2)C(C(=O)NCC2CCCO2)c2ccccc2)cc1 (stereo unspecified)	-14%	i
COc1ccccc1C(=O)Nc1ccc(S(=O)(=O)N2CCN(C)CC2)cc1	-28%	-21%
Cc1ccc(S(=O)(=O)N2CCN(C(=O)c3ccco3)CC2)cc1	-8%	i
O=C(Nc1cc2c3c(c1)CC(=O)N3CCC2)C1CCCCC1	-12%	i
CCCS(=O)(=O)c1cscc1NC(=O)c1c(-c2c(F)cccc2Cl)noc1C	-18%	-13%
O=C(NC1CCCC1)C(c1cccnc1)N(C(=O)c1csnn1)c1ccccc1 (stereo unspecified)	2%	-3%
O=C(CCCN1C(=O)C(c2ccccc2)Oc2cccnc21)Nc1ccccc1Br (stereo unspecified)	-12%	i
COc1cc(-c2nnc(SCC(=O)Oc3ccccc3Cl)o2)cc(OC)c1OC	-13%	1%
CCC[C@@H]1CCCO[C@@](C(=O)NCc2ccc(S(C)(=O)=O)cc2)(C(F)(F)F)C1	-17%	i
Cc1n(N)c2ccccc2[n+]1CC(=O)c1ccccc1	-3%	-12%
COc1ccc(CCC(=O)NCCc2csc(-c3cccc(C)c3)n2)cc1	-8%	-4%
CCOc1cc(-n2cnnn2)c(OCC)cc1NC(=O)c1cnccn1	-3%	0%
CC(C)CC(=O)Nc1ccc(S(=O)(=O)N2CC3CC(C2)c2cccc(=O)n2C3)cc1 (stereo unspecified)	-11%	-1%
C/C(=C\C(=O)c1cccnc1)Nc1ccc(C)c(C)c1	-23%	?
Cc1ccc(OCc2csc(N)n2)cc1	-7%	i
CCN(Cc1ccccc1)S(=O)(=O)c1ccc(F)c(C(=O)Nc2cc(C)ccc2OC)c1	-14%	-12%
N#CCSc1nc2c(cc1C#N)CCCCCC2	-17%	-27%
COCCn1c(SCC(=O)Nc2sc(C)c(C)c2C#N)nnc1C(C)C	-20%	-4%
CC1(C)C(=O)C2(CCCCC2)C(=O)OC1C(=O)c1ccccc1 (stereo unspecified)	-18%	-2%
Cc1ccc(NC(=O)c2ccccc2-c2ccccc2C(=O)O)cc1	-6%	-13%
COc1ccc(-c2nc3scc(CCNS(=O)(=O)c4ccccc4F)n3n2)cc1	-16%	-10%
O=C(CCCc1ccccc1)Nc1ccc2c(c1)OCCO2	-2%	-8%
Cn1ncc([N+](=O)[O-])c1C(=O)Nc1ccc(-c2ccccc2)cc1	-2%	-14%
COc1ccc(NC(=O)CN(C)C(=O)c2cc(-c3ccccc3)nc3ccccc23)cc1	-11%	-7%
O=C(OCc1nnc(-c2ccccc2)o1)c1ccc(S(=O)(=O)NCc2ccco2)cc1	3%	-1%
O=C(NNC(=O)c1cc(S(=O)(=O)N2CCOCC2)c(Cl)cc1Cl)c1ccccc1F	10%	?
CCOC(=O)[C@]12CCCC=C1N(Cc1cccc3ccccc13)C(=O)[C@H](CC(=O)N1CCCCC1)C2	-3%	-8%
Cc1cc(C)c(C(=O)/C=C/c2ccc3c(c2)OCO3)c(=O)[nH]1	-3%	-12%
COc1ccc(NC(=O)CN2CCOCC2)cc1S(=O)(=O)N1CCCCC1	-11%	-15%
c1ccc(Nc2nc(N3CCOCC3)c3ccccc3n2)cc1	?	.

# Single records, from the list above. Values in the order: Vaccinia Venus, VACV mCherry inh
# Entry for `COc1ccccc1C(=O)Nc1ccc(S(=O)(=O)N2CCN(C)CC2)cc1` → -28%, -21%
# Entry for `c1ccc(Nc2nc(N3CCOCC3)c3ccccc3n2)cc1` → ?, .

# Later entries:
compound	Vaccinia Venus	VACV mCherry inh
COc1cccc(/C=N/n2nnnc2N)c1OCC#N	-6%	-6%
C=CCSc1nc(N(CC)CC)c2sccc2n1	?	.
CC1(C)CC2(CCCN(C(=S)Nc3ccccc3)C2)CCO1 (stereo unspecified)	-11%	i
COc1ccc(CC(=O)Nc2cc(S(=O)(=O)N3CCOCC3)ccc2N2CCOCC2)cc1	-14%	-12%
CC1CCc2sc3ncnc(N4CCN(C)CC4)c3c2C1 (stereo unspecified)	-5%	i
C/C(=N\NC(=O)COc1ccc(C(C)(C)C)cc1)c1ccc(-n2ccnc2)cc1	?	?
Nc1nc(-c2ccco2)nn1C(=O)c1ccccc1Cl	-3%	-1%
Cc1cc(C)cc(C(O)c2ncc(-c3cccc(F)c3)[nH]2)c1 (stereo unspecified)	-1%	27%
Nc1nnc(SCC(=O)Nc2cccc(F)c2)s1	-2%	-4%
CCOc1ccc(N2CC(NC(=O)C(=O)c3c[nH]c4ccccc34)CC2=O)cc1 (stereo unspecified)	-9%	-2%
CCN(CC)c1ccc(NS(=O)(=O)c2cn(C)c(=O)n(C)c2=O)c(C)c1	-5%	-17%
C/C=C(\C)CN1CCC(n2nccc2NC(=O)CCc2ccccc2)CC1	-19%	-4%
Cc1ccc(S(=O)(=O)N2CCOCC2)cc1C(=O)N1CCN(c2ccc(C(F)(F)F)cn2)CC1	-6%	i
Cc1ccc(CNC(=O)CC(C)S(=O)(=O)c2ccc3c(c2)NC(=O)CO3)cc1 (stereo unspecified)	-13%	i
COc1ccc(CN(N=O)C2CC(=O)N(c3ccc(OC)cc3)C2=O)cc1 (stereo unspecified)	-23%	i
CC(C)OP(=O)(OC(C)C)C1(O)C(=O)Nc2ccc(Br)cc21 (stereo unspecified)	-11%	.
CC(C)(CNS(=O)(=O)c1ccc2c(c1)OCCO2)N1CCOCC1	-4%	-12%
C/C(N)=C(/C#N)C(=O)CSc1nnnn1-c1ccc(C)cc1	-17%	-2%
CCC(C)c1ccccc1N1CC(C(=O)Nc2ccc(C)c(S(=O)(=O)N3CCOCC3)c2)CC1=O (stereo unspecified)	-27%	-12%
CC(C)=CC1C(C(=O)OCc2cccc(Oc3ccccc3)c2)C1(C)C (stereo unspecified)	0%	-8%
CCOc1ccc(N(CC(=O)NCC2CCCO2)C(=O)CCC(=O)Nc2ccccn2)cc1 (stereo unspecified)	-12%	-14%
COCCNC(=O)c1c(NC(=O)c2cc(=O)c3cc(Cl)ccc3o2)sc2c1CCCC2	-2%[7.34 µM]	-5%[7.34 µM]
CC(=O)Nc1ccc(C(=O)Nc2cc(C(F)(F)F)ccc2-n2cnc3ccccc32)cc1	-22%	-12%
CC1=C(C)CC(C(=O)Nc2ccc3c(c2)OCO3)C(C(=O)O)C1 (stereo unspecified)	-6%	?
COc1ccc(/C=N/NC(=O)c2ccccc2O)cc1CN1CCOCC1	0%	i
CCOC(=O)c1c(C)[nH]c(C(=O)OCC(=O)NC2(C#N)CCCCC2)c1C	-15%	-4%
COc1ccc(C(=O)c2cccc(C(=O)c3ccc(OC)c(C)c3)c2)cc1C	-7%	-10%
Brc1ccc2c(c1)OCCOCCOc1cc(Br)ccc1OCCOCCOCCO2	10µM*	?
O=C(CSc1nc2ccccc2s1)NNC(=S)Nc1ccc(Br)cc1	-12%	-13%
COc1ccccc1NS(=O)(=O)c1cc(C(=O)NCCN2CCOCC2)ccc1Cl	-12%	-14%
CCOc1ccc(N2CC(C(=O)Nc3cc(OCC)c(N4CCOCC4)cc3OCC)CC2=O)cc1 (stereo unspecified)	-11%	-18%
COc1cc(C(=O)NCCCC2CCCC2)ccc1OC1CCN(C(C)=O)CC1	-18%	-1%
CCCCCCN1C[C@H](n2cc(COC(=O)c3ccccc3)nn2)[C@@H](O)C[C@@H]1c1ccccc1	-25%	?
Cc1ccc(-c2csc(Cc3nc(-c4cc5ccccc5oc4=O)cs3)n2)cc1	-20%	-15%
COc1ccc(-n2nc(C(=O)NCC(=O)NCCCN3CCC(C)CC3)c3ccccc3c2=O)cc1Cl	-9%	-6%
C/C(CCc1ccc2c(c1)OCO2)=N\NC(=O)c1ccc(C)cc1C	-16%	-9%
O=C(Nc1cc(Cl)ccc1Cl)P(=O)(O)c1ccccc1	-1%	-14%
COc1ccc(N2C(=O)c3ccccc3NC(=O)C2C(=O)NCc2ccco2)cc1 (stereo unspecified)	-5%	?
Cc1ccc(NC(=O)N2CCN(c3nnc(C)c4c(C)n(-c5ccc(Cl)cc5)nc34)CC2)c(C)c1	-16%	-23%
COc1cccc(N2CC(C(=O)NNC(=O)c3ccc(Cl)cc3)CC2=O)c1 (stereo unspecified)	-9%	i
COc1ccc(C(=O)N2CCN(C)C(C)C2)cc1OC1CCN(C(C)=O)CC1 (stereo unspecified)	-11%	i
CN1C(=O)C(CC(=O)N2CCN(C(c3ccccc3)c3ccccc3)CC2)N(C)C1=O (stereo unspecified)	-8%	-10%
Cc1cc(S(=O)(=O)NC2CCCC2)ccc1F	-25%	.
COCC(=O)N(Cc1cc2cc(OC)ccc2[nH]c1=O)c1ccc(C)cc1	-27%	.
COC(=O)c1ccc(NC(=O)C2CC(=O)N(c3ccc(C)cc3)C2)cc1 (stereo unspecified)	-9%	-21%
CCOC(=O)c1c(C)c(-c2ccccc2)n(CC(=O)N2CCN(C)CC2)c1C	-12%	i
Cc1cc(S(=O)(=O)N(Cc2ccccn2)Cc2ccco2)ccc1-n1cnnn1	-8%	-14%
CCCn1c(SCC(=O)Nc2ccccc2OC)nnc1-c1ccco1	-27%	-21%
CCN1c2ccccc2-c2nc(SCC(=O)NCc3ccccc3)ncc2S1(=O)=O	9%	-14%
COC(=O)Cc1c(O)ccn(Cc2cccc(C(F)(F)F)c2)c1=O	-2%	i
O=C(NNC1=C(C(=O)C(F)(F)F)CCC1)c1ccccc1Cl	-5%	.
Cc1cc(C)cc(N(CC(=O)NCc2ccccc2)C(=O)CCC(=O)Nc2ccccn2)c1	-12%	i
CCOc1cccc2cc(-c3nc4sc(C(=O)Nc5ccc(C)cc5)c(C)c4c(=O)[nH]3)c(=O)oc12	2%	-11%
CCn1ccc(C(=O)NC2CCCC2)n1	-10%	-6%
CCn1nc(C)c(/C=N/NC(=S)Nc2ccc(Cl)cc2Cl)c1C	-14%	-22%
N#C/C(=C\c1c(N2CCN(c3ccccc3)CC2)nc2ccccn2c1=O)S(=O)(=O)c1ccccc1	-11%	-17%

# Next part:
compound	Vaccinia Venus	VACV mCherry inh
CC(C)Oc1ccc(CNC(=O)c2cnc3sc(N4CCCC4)nn3c2=O)cc1	-7%	-13%
CCOCCn1[nH]c2ccccc2c1=O	-10%	-15%
COc1ccc2[nH]c(=O)c(CN(C(=O)c3cccnc3)c3ccc(C)cc3)cc2c1	-25%	.
CN1C(C(=O)Nc2cccc(O)c2)=CC(c2ccco2)=NS1(=O)=O	-6%&-7%	-16%&0%
COC(=O)CN(c1cccc(F)c1)S(C)(=O)=O	-3%	-13%
CC(C)C(=O)NC(=S)Nc1ccccc1F	-20%	-1%
O=C(COC(=O)CCCC1=NS(=O)(=O)c2ccccc2N1)Nc1ccc(Br)cc1	-19%&-11%	-16%&4%
Cc1ccccc1NC(=O)CSc1c(C(C)C)cnc2c1c(=O)n(C)c(=O)n2C	-11%	-2%
O=C(Cn1c(=O)c2c(ncn2C2CCCC2)n(Cc2ccccc2)c1=O)N1CCc2ccccc21	-12%	-13%
Cc1cccc(NC(=O)CCN2C(=O)c3ccccc3S2(=O)=O)c1C	-8%	i
COc1cc(C2/C(=C(/O)c3ccc(OCC(C)C)cc3)C(=O)C(=O)N2CCN(C)C)ccc1O (stereo unspecified)	-9%	?
CS(=O)(=O)N1CCc2nc(-c3ccccc3)sc2C1	-14%	-14%
CCn1c2ccc(C)cc2c2nnc(SCCN3CCCCC3)nc21	?	?
CC(=O)O[C@H]1CC[C@]2(C)C3CC[C@@]4(C)C(C[C@@H](O)[C@@H]4O)C3[C@@H](OC(C)=O)C[C@H]2C1 (stereo partly specified)	-9%	?
Cc1ccc2c(c1)N(Cc1cccc(Cl)c1)C(=O)c1cccnc1O2	-5%	-6%

# High-throughput results deposited in PubChem BioAssay by National Center for Advancing Translational Sciences (NCATS).
